Source: PubChem
HIV TAR-Tat = HIV-1 TAR-Tat binding disruption. HIV-1 TAR RNA, Tat peptide displacement FRET; active compounds read high. z-score (no concentration beside the values). hit rate 0.6% among 100,000. AID 1259389;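 further: score is relative to mean and SD of negative controls; some compounds called inactive have numbers as strong as hits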
CDC25B CDK2 inh = human CDC25B-CDK2/CyclinA binding inhibition; P30305+P24941; HTRF CDC25B-CDK2/CyclinA binding, anti-His/anti-Flag; active compounds read high; z-score (concentration not given with the values); hit rate 0.72% among 94,000; AID 1259370;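 further: score is relative to mean and SD of negative controls; strong numbers were not always called active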
* = called active by the depositor; · = no result given.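 How the source made its calls: active means z-score from 3 up in half or more of its runs; inactive means the rest.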

Molecule,HIV TAR-Tat,CDC25B CDK2 inh
Cc1ccc(-n2cc3c(=O)[nH]cnc3n2)cc1,3.69,0.28
Cc1c(C(=O)NCCCN2CCCCC2)sc2nc3n(c(=O)c12)CCCC3,3.54,·
O=C(CN1C(=O)CCc2cc(Br)ccc21)N1CCN(c2ccc(F)cc2)CC1,0.93,·
Cc1cc(S(=O)(=O)[C@H]2CS(=O)(=O)C[C@@H]2NCCCOC(C)C)ccc1F,0.52,-1.58
COc1ccc2c(c1)CC(NC(=O)NCCCN1CCc3ccccc3C1)CO2 (centres undefined),0.96,·
O=C(C1CCC(CNc2c(N3CCCCC3)c(=O)c2=O)CC1)N1CCN(c2ccccn2)CC1 (centres undefined),0.72,-1.94
O=C(Nc1nnc(-c2cccs2)o1)c1ccc2c(c1)OCCO2,1.13,·
N#Cc1ccc(CNC(=O)Nc2ccc(OCc3ccccc3)cc2)cc1,·,-2.58
Cc1csc(NC(=O)Nc2cn(CC(C)C)c(=O)c3ccccc23)n1,2.84,·
CN(CCNC(=O)C1CCCN(c2nnc(-n3cccc3)s2)C1)C1CCCCC1 (centres undefined),1.78,·
CC1CC(C)CN(C(=O)c2cnn3c4c(cnc23)CCCCCC4)C1 (centres undefined),-0.28,·
COc1ccc(CNS(=O)(=O)c2ccc(-c3ccc(=O)[nH]n3)s2)cc1OC,0.1,·
C=CCNc1nc(NC(C)C)c2cnn(C)c2n1,0.62,·
COc1ccc(-c2ccc(NS(=O)(=O)c3cc(C)ccc3OC)cc2)nn1,0.96,·
CN(C(=O)C1CCN(S(=O)(=O)c2ccc3c(c2)oc(=O)n3C)CC1)C1CCCCC1,·,-0.22
O=C(Cn1sc2ccccc2c1=O)NCc1cccs1,2.4,-2.33
Cc1ccc2c(c1)C(=O)C(=O)N2CCOc1ccc(C(C)(C)C)cc1,-0.5,1.37
CCOC(=O)CN1C(=O)C2(C(C#N)=C(N)Oc3n[nH]c(C)c32)c2ccccc21 (centres undefined),·,-0.04
Cc1ccc(S(=O)(=O)c2c(C(=O)c3ccccc3)cnc3cc4c(cc23)OCCO4)cc1,0.47,-3.85
COc1ccc(N(C(=O)c2cc3ccccc3oc2=O)C2C=CS(=O)(=O)C2)c(OC)c1 (centres undefined),·,-2.4
CCCc1cc(=O)n2nc(N3CCC(C(=O)N4CCC(C)CC4)CC3)sc2n1,0.44,-0.65
O=C(c1cccs1)N1CCCN(S(=O)(=O)c2cccc(Cl)c2Cl)CC1,·,-2.52
COc1ccccc1Nc1nc(C)nc(N)c1S(=O)(=O)c1ccccc1,1.83,-0.47
Cc1oc2ncnc(N3CCCCC3)c2c1C(=O)NCCC1=CCCCC1,-0.8,·
Cc1ccc2c(c1)Cc1c(nc(-c3cc(Br)ccc3O)[nH]c1=O)O2,0.22,-2.2
O=C(NCc1ccc2c(c1)OCO2)c1ccc(-c2ccc(N3CCOCC3)nn2)cc1,2.06,·
CSc1nnc(SCC(=O)c2sc3ccc(Cl)cc3c2C)s1,·,-1.04
Cc1cc(=O)nc2c3ccccc3n(C(C)C(=O)NCCC3=CCCCC3)n12 (centres undefined),-2.13,-0.25
CCCc1c(C)nc2ncnn2c1Nc1ccc(Cl)cc1,0.73,-1.01
O=C(O)c1ccc(S(=O)(=O)NCc2cccnc2)cc1,·,-1.48

Rewritten with each value named: part of the list above
> Cc1oc2ncnc(N3CCCCC3)c2c1C(=O)NCCC1=CCCCC1
- HIV TAR-Tat = -0.8
- CDC25B CDK2 inh = ·
> CN(C(=O)C1CCN(S(=O)(=O)c2ccc3c(c2)oc(=O)n3C)CC1)C1CCCCC1
- HIV TAR-Tat = ·
- CDC25B CDK2 inh = -0.22
> O=C(O)c1ccc(S(=O)(=O)NCc2cccnc2)cc1
- HIV TAR-Tat = ·
- CDC25B CDK2 inh = -1.48

Next part:
Molecule,HIV TAR-Tat,CDC25B CDK2 inh
COc1ccc(CN2CCc3nc(Nc4ccc5c(c4)OCCO5)ncc3C2)cc1OC,1.72,·
CCOC(=O)c1cc(C)n(CC2CCC(C(=O)N(C)C3CCCCC3)CC2)c1C (centres undefined),-0.78,·
c1nnnn1CCCN1CCOCC1,·,-1.73
COC(=O)c1cc(S(=O)(=O)NCCCN2CCCC2=O)cn1C,1.06,·
Cc1nnc2sc(C3COc4ccccc4O3)nn12 (centres undefined),1.08,1.3
Cc1ccc(-n2c(C)c(C)c3c2ncn2nc(-c4ccccn4)nc32)cc1C,1.59,1.21
CC1CCN(C(=O)Cn2cc(C(=O)c3ccco3)c3ccccc32)CC1,0.54,2.17
O=C(c1[nH]nc2c1CCc1ccccc1-2)N1CCN(c2ccc(Cl)cc2)CC1,0.62,·
O=C(N/C=C/c1cccs1)NCc1ccc(C(F)(F)F)cc1,·,-1.6
O=C(CSc1nnc(Cn2nc(-c3ccccc3)ccc2=O)o1)N1CCCC1,0.66,·
CN1c2ccc(Cl)cc2-c2nc(SCC(=O)Nc3ccccc3F)ncc2S1(=O)=O,-1.22,·
CC(=O)N1c2ccc(S(=O)(=O)N3CCCC3C(=O)Nc3nc4ccc(C)cc4s3)cc2CC1C (centres undefined),0.33,·
CC1=C(C(=O)OC(C)C)C(c2ccc3c(c2)OCO3)C(C(=O)OC(C)C)=C(C)N1,·,-2.88
CCC(C)(C(=O)NC1CCCCC1)N(C(=O)Cc1cccs1)c1ccccc1 (centres undefined),·,-0.95
O=C(NC1CCCC1)C1CCN(C(=O)c2ccc3c(c2)nnn3C2CCCC2)CC1,0.21,·
O=C(NCc1ccco1)c1cc(-c2ccccn2)n[nH]1,1.21,·
O=C(NCCc1ccccc1)C1CCC(=O)N1C1CCCC1 (centres undefined),·,-2.3
COc1ccc(-c2cnc3cc(-c4ccc(C(C)(C)C)cc4)nn3c2N)cc1OC,1.74,-0.82
COc1ccc(OC)c(C2NC(=O)c3c(sc4c3CCCC4)N2)c1 (centres undefined),1.76,-0.49
CCCN(CCC)CCNS(=O)(=O)c1ccc2c(c1)NC(=O)CO2,0.58,·
COc1ccc2c(c1)CC(NC(=O)N1CCN(c3ccc(F)cc3)CC1)CO2 (centres undefined),0.42,·
CC(C)C(C(=O)NCc1cccs1)N1Cc2ccccc2C1=O (centres undefined),-0.18,·
CC(=O)c1sc(C(C)(C)C)cc1NC(=O)c1ccccc1C(=O)O,·,-3.04
N#CSc1ccc(NC(=O)c2cc3ccccc3c(=O)s2)cc1,0.18,-3.13
COCCOC(=O)C1=C(C)NC(=O)NC1c1ccc(Cl)cc1 (centres undefined),·,-1.37
O=C(NCCN1CCOCC1)C1CCN(c2nc3ccccc3o2)CC1,·,-1.52
Cc1ccc(-c2nnc3ccc(SCC(=O)Nc4ccc5c(c4)OCO5)nn23)cc1,·,-6.6
O=C(O)C1CCN(S(=O)(=O)N2CCOCC2)CC1,1.98,·
COc1cccc(CNCc2ccc3c(c2)OCO3)c1OC,1.51,-0.67
CC(Oc1ccccc1)c1nc(-c2ccc3c(c2)[nH]c(=O)n3C(C)C)no1 (centres undefined),0.71,·
CCOC(=O)C1CCN(S(=O)(=O)c2ccc(S(=O)(=O)c3ccccc3)s2)CC1,·,-0.89
C[C@H](CCC(=O)O)[C@H]1CC[C@H]2[C@@H]3C(=O)C[C@@H]4CC(=O)CC[C@]4(C)[C@H]3CC(=O)[C@]12C,2.87,·
COc1oc(-c2ccc(C)cc2)nc1C(F)(F)F,0.2,-0.24
N#C/C(=C\c1cccc(F)c1)C(=O)c1csc2ccccc12,·,1.3
CSc1c(C#N)c(N)nn1C,·,-2.35
CCS(=O)(=O)Nc1ccc(-c2ccc(OC)nn2)cc1,0.8,·
COc1ccccc1Nc1nc(Nc2cccc(Cl)c2)c2cnn(C)c2n1,1.66,·
COc1cccc(Nc2nc3ccccc3c3nncn23)c1,-0.02,-0.8
COC(=O)c1ccc2[nH]c(C)cc(=O)c2c1,-0.29,-3.37
O=C(Cn1ncn2c(cc3sccc32)c1=O)NCc1ccc(F)cc1,-2.12,-1
COc1ccccc1NS(=O)(=O)c1ccc(OC)c(OC)c1,0.82,-0.52
O=C1Nc2cc(S(=O)(=O)N3CCCCC3)ccc2N2CCCCC12 (centres undefined),1.9,·
CCOC(=O)c1nnn(-c2nonc2N)c1CN(C)c1ccccc1,2.19,-1.07
COc1cccc(Nc2nc(NCCO)nc3c2cnn3C)c1,0.11,·
CCN(C(=O)C(=O)c1c[nH]c2ccccc12)c1ccccc1,2.94,-0.39
CCCCn1cc(S(=O)(=O)c2cccc(Cl)c2)c(=O)c2cc(F)c(N3CCOCC3)cc21,0.81,·
O=C(Nc1sc2c(c1C(=O)Nc1ccc(Br)cc1)CCCC2)c1ccco1,-1.29,-0.78
CC(C)C(O)(c1ccc(F)cc1)C(CN1CCOCC1)c1ccc(Cl)cc1 (centres undefined),0.29,-0.97
CCCCc1ccc(NC(=O)CSc2nn3c(=O)c(C)nnc3s2)cc1,2.1,·
O=C(OCc1cc(=O)n2nc(C3CC3)sc2n1)C(c1ccccc1)c1ccccc1,-0.91,·
N#Cc1cccc(C#N)c1Oc1ccc(S(=O)(=O)N2CCC(C(N)=O)CC2)cc1,·,-1.03
Cc1n[nH]c(C)c1S(=O)(=O)N1CCC(C(=O)N2CCn3c2nc2ccccc23)CC1,·,-1.25
O=C1CC23CCCCC2(C1)CC(=O)C3 (centres undefined),·,-1.37
O=C(c1cccn1-c1nnc(N2CCCC2)s1)N1CCN(c2ncccn2)CC1,1.1,·
C=C[Si]1(C)O[Si](C)(c2ccccc2)O[Si](C)(c2ccccc2)O[Si](C)(c2ccccc2)O1 (centres undefined),·,-0.68
Cc1cc(C)cc(Nc2nnc(C(C)(C)C)c(=O)[nH]2)c1,0.71,-0.87
C=CCOc1ccc(C2CC(=O)Nc3c2c(C)nn3-c2nncc(-c3ccc(F)cc3)n2)cc1 (centres undefined),15.8*,-1.66
Cc1ncc([N+](=O)[O-])n1Cc1ccc(Cl)cc1,0.4,0.87
O=C(O)CCSc1cccc2cccc(C(=O)O)c12,·,10.9*
CCOC(=O)c1cc(C23CC4CC(CC(C4)C2)C3)nc2ccccc12,·,-1.38

Single records, as listed above. Screens in order: HIV TAR-Tat | CDC25B CDK2 inh
C[C@H](CCC(=O)O)[C@H]1CC[C@H]2[C@@H]3C(=O)C[C@@H]4CC(=O)CC[C@]4(C)[C@H]3CC(=O)[C@]12C across the screens: 2.87 | ·
O=C(OCc1cc(=O)n2nc(C3CC3)sc2n1)C(c1ccccc1)c1ccccc1 across the screens: -0.91 | ·
CCOC(=O)c1cc(C23CC4CC(CC(C4)C2)C3)nc2ccccc12 across the screens: · | -1.38
O=C(Nc1sc2c(c1C(=O)Nc1ccc(Br)cc1)CCCC2)c1ccco1 across the screens: -1.29 | -0.78

The listing continues:
Molecule,HIV TAR-Tat,CDC25B CDK2 inh
O=C(O)Cn1cnc2scc(-c3ccccc3)c2c1=O,0.98,1
CN(Cc1ccccc1)C(=O)c1ccc(NC(=O)[C@H]2[C@@H]3C[C@@H]4[C@H]2C(=O)O[C@@H]4C3)cc1,1.14,-2.26
O=C(O)CSCC(=O)N1CCC2(CC1)OCCO2,·,0.72
CSc1ccccc1NC(=O)c1cnc2ccc(C)cn2c1=O,1.43,-1.35
O=C(O)/C=C/C(=O)NCC1CCC(CNC(=O)/C=C/C(=O)O)CC1 (centres undefined),·,-1.64
C=CCn1c(CCCNC(=O)C(C)(C)C)nc2ccccc21,·,-0.27
O=C(Nc1ccccc1)N1CCSCC1,0.53,-0.86
Cc1ccc(C)c(NS(=O)(=O)c2cc(Br)cnc2N)c1,1.88,·
CCN1CCN(C(=O)C2CCCN(c3nn4c(=O)c5c(nc4s3)CCCC5)C2)CC1 (centres undefined),1.17,·
CCCCC1CCC(C(=O)Nc2ccc(-n3cnnn3)cc2)CC1 (centres undefined),1.24,0.5
CCOC(=O)c1c(C)n(C)c2ccc(OCC(O)CN3CCC(C)CC3)cc12 (centres undefined),1.37,0.08
Cc1cc(N2CCN(C3CCCCC3)CC2)c2nncn2n1,-0.48,-0.49
O=c1c2cc3c(cc2nc(SCc2ccc(F)cc2)n1Cc1ccco1)OCO3,·,-2.04
CCCCC(=O)Nc1nccs1,·,-1.83
CCCCN1C(=O)CCC1(C)C(=O)NC1CCCC1 (centres undefined),-0.11,0.42
CC(C)CCNC(=O)CCc1nnc2ccc(N3CCCCC3)nn12,0.25,·
O=C(CSc1nnnn1-c1ccccc1)Nc1ccc2c(c1)OCO2,1.07,-0.05
CCCCc1nc(SCC(=O)NC2CCCCC2)c2c(=O)n(C)c(=O)n(C)c2n1,1.33,·
CCOc1nc2cccc(C(=O)OC(C)OC(=O)OC3CCCCC3)c2n1Cc1ccc(-c2ccccc2-c2nn[nH]n2)cc1 (centres undefined),0.88,1.67
Cc1cc(C)c(S(=O)(=O)NCCc2csc(-c3cccc(F)c3)n2)cc1C,1.67,·
COc1ccc(CN(C)Cc2cc(=O)c3cc(Cl)ccc3[nH]2)cc1,-0.52,·
O=C(CSc1nc(O)cc(=O)[nH]1)Nc1ccccc1F,0.49,-1.69
O=C(NC(C(=O)O)c1ccccc1)c1ccc(Cl)cc1 (centres undefined),·,-1.9
CCC1(C)Cc2c(sc3c2c2ncnn2c2nnc(SCc4ccc(OC)cc4)n32)CO1 (centres undefined),0.42,-1.6
Cc1nc(C(F)(F)F)ccc1C(=O)NCc1ccc(Cl)c(Cl)c1,·,-1.55
O=c1c2cnn(-c3ccccc3)c2nnn1/N=C/c1ccc([N+](=O)[O-])cc1,·,-0.26
